NPYLR7 agonist: mosquito NPYLR7 agonism; HEK293T NPYLR7/Galpha15, GCaMP6s calcium fluorescence; activation, % at 10 µM; 0.15% of 270,000 active; in the data active means activation above about 40%;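 further: 0% = vehicle and 100% = reference agonist at the receptor; some compounds past the cut are filed as inactive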
NPYLR7 agonist max-min: recorded beside NPYLR7 agonist, whose call it bears; activation, %; measured here: Max-Min RFU normalised activation; some inactives read as strong as hits;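 span of the calcium signal over five minutes; 0% = vehicle and 100% = native peptide agonist; compound fluorescence can raise it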
* = called active by the depositor; & = joins results of further samples.

#1 Cc1cccc(Nc2nc(NCC(C)O)nc3c2cnn3-c2ccccc2)c1 (stereo not drawn)
#2 O=C(NCc1ccccn1)c1nn(-c2cccc(F)c2)c(=O)n(Cc2cccc(Cl)c2)c1=O
#3 N#CCn1nnc2ccccc21
#4 CCn1c(CC2CCNCC2)nn(Cc2nc(COC)no2)c1=O
#5 CC1ON=C(Cc2ccccc2)N(Cc2ccccc2F)C1=O (stereo not drawn)
#6 CCCN(Cc1c(CC)nn(-c2ccc(F)cc2)c1N1CCN(C(C)C)CC1)C(=O)c1cccs1
Screen / compound no.	1	2	3	4	5	6
NPYLR7 agonist	2.5	12.3	-1.8	0.9	2.2	5.3
NPYLR7 agonist max-min	-1.6	8.4	-2.1	-5.0	-0.7	20.8

The last two entries of the part above are carried over, then new ones follow:
#5 CC1ON=C(Cc2ccccc2)N(Cc2ccccc2F)C1=O (stereo not drawn)
#6 CCCN(Cc1c(CC)nn(-c2ccc(F)cc2)c1N1CCN(C(C)C)CC1)C(=O)c1cccs1
#7 Cc1ccc(S(=O)(=O)Nc2nc(N3C(=O)c4ccccc4C3=O)n(-c3ccccc3)n2)cc1
#8 Cn1c(=O)c2c(nc(SCC(=O)N3CCOCC3)n2C)n(C)c1=O
#9 CN(Cc1ccc(F)cc1F)C(=O)NCc1cccc(C(F)(F)F)c1
#10 Cc1nc(COC(=O)C2CSCN2C(=O)OC(C)(C)C)no1 (stereo not drawn)
#11 Cc1onc(-c2c(Cl)cccc2Cl)c1C(=O)NC1=NCCS1
#12 c1ccc(Nc2c(-c3ccco3)nc3ccccn23)cc1
Screen / compound no.	5	6	7	8	9	10	11	12
NPYLR7 agonist	2.2	5.3	8.8	3.8	6.3	-18.2	-1.1	3.2
NPYLR7 agonist max-min	-0.7	20.8	8.4	2.4	4.8	-14.4	2.0	0.7

Overlap with the part before: four entries, then new ones.
#9 CN(Cc1ccc(F)cc1F)C(=O)NCc1cccc(C(F)(F)F)c1
#10 Cc1nc(COC(=O)C2CSCN2C(=O)OC(C)(C)C)no1 (stereo not drawn)
#11 Cc1onc(-c2c(Cl)cccc2Cl)c1C(=O)NC1=NCCS1
#12 c1ccc(Nc2c(-c3ccco3)nc3ccccn23)cc1
#13 O=S(=O)(Nc1ccc(N2CCOCC2)cc1)c1cc(Cl)ccc1Cl
#14 CCOC(=O)Cn1c(C2CC(=O)N(c3ccc(OC)cc3)C2)nc2ccccc21 (stereo not drawn)
#15 Cc1ccc(CN2CCC(C(=O)Nc3cccc(-c4ccn[nH]4)c3)CC2)o1
#16 CCc1c(C(=O)NCc2cccnc2)cnn1-c1ccccc1
#17 CCN1C(=O)SC(N(CC(N)=O)c2ccc(C)cc2)C1=O (stereo not drawn)
#18 CN(Cc1cn[nH]c1-c1ccc(F)cc1)C(=O)c1cccc(N)c1
Screen / compound no.	9	10	11	12	13	14	15	16	17	18
NPYLR7 agonist	6.3	-18.2	-1.1	3.2	8.3	3.9	7.2	10.9	-0.4	3.0
NPYLR7 agonist max-min	4.8	-14.4	2.0	0.7	14.3	0.8	3.8	22.3	-1.2	12.2

In a second layout: 5 of the compounds above.
Values in the order: NPYLR7 agonist | NPYLR7 agonist max-min
13: O=S(=O)(Nc1ccc(N2CCOCC2)cc1)c1cc(Cl)ccc1Cl
    8.3 | 14.3
14: CCOC(=O)Cn1c(C2CC(=O)N(c3ccc(OC)cc3)C2)nc2ccccc21 (stereo not drawn)
    3.9 | 0.8
15: Cc1ccc(CN2CCC(C(=O)Nc3cccc(-c4ccn[nH]4)c3)CC2)o1
    7.2 | 3.8
16: CCc1c(C(=O)NCc2cccnc2)cnn1-c1ccccc1
    10.9 | 22.3
17: CCN1C(=O)SC(N(CC(N)=O)c2ccc(C)cc2)C1=O (stereo not drawn)
    -0.4 | -1.2

Later entries.
#19 Cn1c(=O)c2c(nc(CN3CCCCC3)n2Cc2c(F)cccc2Cl)n(C)c1=O
#20 CC1CC(=O)NN=C1c1cc(-n2ccnc2)cs1 (stereo not drawn)
#21 O=C(c1ccccc1F)N(Cc1ccc(C(F)(F)F)cc1)CC1CC(c2ccc(Cl)c(Cl)c2)=NO1 (stereo not drawn)
#22 NNC(=O)CN1C(=O)C2(OCCCO2)c2cc(Br)ccc21
#23 CCOC(=O)c1sc(NC(=O)c2cccnc2)c(C(=O)OCC)c1C
#24 CCNC(=S)Nc1ccc2cn[nH]c2c1
Screen / compound no.	19	20	21	22	23	24
NPYLR7 agonist	9.1	-11.3	-3.5	4.0	-1.6	-2.6
NPYLR7 agonist max-min	7.3	-25.5	6.1	1.5	-3.3	-11.8

#25 CCOc1ccccc1CN1CCN(Cc2cnc(-c3ccccc3C)nc2)CC1CCO (stereo not drawn)
#26 COc1cc2ncn(CC(O)c3ccccc3)c(=O)c2cc1OC (stereo not drawn)
#27 O=C1CSC(c2cccnc2)N1C1CCCCC1 (stereo not drawn)
#28 CC(C)(C)C(=O)NS(=O)(=O)c1ccsc1
#29 O=C(NCCn1nc(-c2ccc(Cl)cc2)ccc1=O)C1c2ccccc2Oc2ccccc21
#30 CC(=O)N1CCc2cc(NC(C(=O)N3CCCC3)c3ccccc3)ccc21 (stereo not drawn)
Screen / compound no.	25	26	27	28	29	30
NPYLR7 agonist	4.4	2.3	-5.2	-6.5	-3.0	1.1
NPYLR7 agonist max-min	5.7	0.4	-11.3	-5.8	-4.0	1.0

#31 O=C(CN1C(=O)c2ccccc2CS1(=O)=O)Nc1ccccc1F
#32 Cc1cc(C)c(-c2ccc(=O)n(Cc3ccccc3)n2)cc1C
#33 CC(=O)Nc1ccc(S(=O)(=O)Nc2ccc(Nc3ccc(-n4cccn4)nn3)cc2)cc1
#34 CCSc1nnc(N=Cc2nc(-c3cccc4ccccc34)oc2O)s1
#35 CC(C)C(=O)NNS(=O)(=O)c1ccc(Cl)cc1
#36 CC1CCN(c2ccc(NC(=O)Nc3c(C(C)C)cccc3C(C)C)cc2C(=O)NC(C)c2ccccc2)CC1 (stereo not drawn)
Screen / compound no.	31	32	33	34	35	36
NPYLR7 agonist	-20.4	11.8	0.3	7.6	0.4	15.9
NPYLR7 agonist max-min	-20.7	5.3	-7.0	-2.3	-2.7	15.2

#37 COc1cc2c(cc1OC)C(C(=O)c1ccc(OC)c(OC)c1O)=NCC2
#38 COc1cccc(NC(=O)CCC2CCN(C(=O)[C@H]3C[C@@H]4C=C[C@H]3C4)CC2)c1
#39 CCOC(=O)C1(CCOc2ccccc2)CCN(C2CCN(c3ccccc3)CC2)CC1
#40 CCOc1ccc(C(=O)Nc2ccc(Br)cn2)cc1[N+](=O)[O-]
#41 CCOc1ccc2c(c1)CN(C(=O)NCc1ccccn1)CC2
#42 COCCNC(=O)c1ccc(CSc2nc(COC)cc(N3CCN(c4cccc(C(F)(F)F)c4)CC3)n2)cc1
Screen / compound no.	37	38	39	40	41	42
NPYLR7 agonist	1.1	1.1	10.9	-0.7	-2.0	3.1
NPYLR7 agonist max-min	-1.8	-2.9	2.2	6.7	-4.6	6.0

#43 CSCC(=O)N1CCc2ccc(NC(=O)c3ccccc3Cl)cc2C1
#44 CN(CC1CCC1)C1CCS(=O)(=O)CC1
#45 O=C(Cn1cnc2c(nnn2-c2ccc(OC(F)(F)F)cc2)c1=O)N1CCN(c2ccccc2)CC1
#46 Cc1ccc(C)c(NC(=O)c2csc3c2CCCC3)c1
#47 CCOC(=O)CNC(=O)COc1coc(CN2CCc3ccccc32)cc1=O
#48 CC1=C(C(=O)OC(C)C)C(c2cccc(Br)c2)C2=C(CC(c3ccc(Cl)cc3)CC2=O)N1 (stereo not drawn)
Screen / compound no.	43	44	45	46	47	48
NPYLR7 agonist	6.5	-2.6	3.2	-0.2	1.7	-0.5
NPYLR7 agonist max-min	-0.4	0.1	-4.2	-1.5	0.7	3.3

#49 COc1ccccc1-n1c(=O)c2ccc(Cl)cc2n(C(C)C(=O)NCc2cccnc2)c1=O (stereo not drawn)
#50 Cc1ccccc1OC1CN(C(=O)CCC2=NNC(=O)CC2)C1
#51 Cc1cc(C)c(S(=O)(=O)N(CCCN2CCOCC2)CC(=O)N(Cc2ccc3c(c2)OCO3)Cc2ccco2)c(C)c1
#52 Cc1ccc(F)cc1-n1c(CCN)n[nH]c1=O
#53 CC1CCCN(S(=O)(=O)c2ccc(NC3CC(C)(C)NC(C)(C)C3)c([N+](=O)[O-])c2)C1 (stereo not drawn)
#54 COc1ccc2c(c1OC)C(=O)OC2CC(=O)c1ccc(F)cc1 (stereo not drawn)
Screen / compound no.	49	50	51	52	53	54
NPYLR7 agonist	-3.0	-2.0	-2.3	3.3	2.5	-0.9
NPYLR7 agonist max-min	11.9	-2.0	-0.6	0.4	-3.3	3.4

#55 CC(C)CCN1CCN(Cc2ccc(C(F)(F)F)cc2)CC1CCO (stereo not drawn)
#56 CC(c1nc2ccccc2s1)N(C)C(=O)NCC1CCOC1 (stereo not drawn)
#57 Cc1cc(OC(=O)c2cc(Cl)ccc2Cl)c([N+](=O)[O-])c(=O)[nH]1
#58 O=S1(=O)CC2N=C(Nc3ccc(F)c(F)c3)SC2C1 (stereo not drawn)
#59 COc1ccc(OC)c(-c2ccc(NC(=O)CN)c(F)c2)c1
#60 Cc1nc(-c2ccc(CSc3ncn[nH]3)o2)n(-c2ccc(F)cc2)n1
Screen / compound no.	55	56	57	58	59	60
NPYLR7 agonist	10.1	1.0	-2.9	-0.3	-2.1	3.6
NPYLR7 agonist max-min	0.6	0.1	-1.3	-1.3	-6.5	3.2

#61 C#CCN1CCC[C@H]1C(=O)Nc1ccc2nc(-c3ccccn3)[nH]c2c1
#62 CCC(=O)OC1CC2CN(C(=O)c3ccccc3)CC(C1)C21SCCS1 (stereo not drawn)
#63 COc1ccc(-n2nc3c(c2NC(=O)c2ccc(N4C(=O)CCC4=O)cc2)CSC3)cc1
#64 Cc1ccnc(N2CCC(C3CCCN3)CC2)n1 (stereo not drawn)
#65 COC(=O)c1cnn(-c2cc(OC)ncn2)c1N
#66 CC1=C(Sc2nc3ccc(Cl)cc3[nH]2)C(=O)NC2C=CC=CC12 (stereo not drawn)
Screen / compound no.	61	62	63	64	65	66
NPYLR7 agonist	2.5	1.7	-3.0	4.3	1.7	0.5
NPYLR7 agonist max-min	-0.2	-4.3	-2.4	-0.9	8.3	-2.2

#67 CCc1c(C)nn(Cc2nc(CC3CCN(C)CC3)no2)c1C
#68 O=C(CCc1cn(S(=O)(=O)c2cccs2)c2ccccc12)N1CCC(CNC(=O)C(F)(F)F)CC1
#69 CC(C)Nc1ncccc1C(=O)NCc1ccco1
#70 O=c1[nH]c(SCc2ccccn2)nc2c1cnn2Cc1ccccc1
#71 CC1(COc2ccc3c(c2)ncn3-c2ccc3cccc(N4CCC(N)CC4)c3n2)COC1
#72 CCc1cccc(C)c1NC(=O)c1cccc(C)n1
Screen / compound no.	67	68	69	70	71	72
NPYLR7 agonist	0.7	-7.4	1.0	-0.3	-2.2	1.7
NPYLR7 agonist max-min	13.1	-9.5	-4.5	-0.9	-4.9	1.3

#73 CN(C)P(=NC(=S)Nc1ccc(SC(F)F)cc1)(c1ccncc1)N(C)C
#74 CC1(C)OC2OC(C(=O)Oc3ccc(Br)cc3)C3OC(C)(C)OC3C2O1 (stereo not drawn)
#75 COc1cccc(-c2cc(C(=O)N3CCN(c4ccccc4F)CC3)nc3cc(C(C)(C)C)nn23)c1
#76 COc1ccc(F)cc1C(=O)C1CCCN(Cc2cn(C)nc2-c2ccccc2)C1 (stereo not drawn)
#77 CCc1cc(=O)[nH]c(-n2nc(C)cc2NC(=O)c2ccc(S(=O)(=O)N(CC)CC)cc2)n1
#78 CCCn1c(=O)c2c(nc3n2CC(C)CN3c2ccc(Br)cc2)n(C)c1=O (stereo not drawn)
Screen / compound no.	73	74	75	76	77	78
NPYLR7 agonist	10.4	-3.7	3.9	7.5	5.8	8.0
NPYLR7 agonist max-min	13.7	-6.0	9.4	-7.5	-1.8	4.7

#79 Cc1cccc(-n2nnc3c(=O)n(Cc4cccnc4)cnc32)c1
#80 O=C(c1cccc(Cl)c1)N(CC(=O)N1CCc2sccc2C1COc1cccc(F)c1)Cc1ccco1 (stereo not drawn)
#81 Cn1c(C(C#N)=Cc2ccc3c(c2)OCO3)nc2ccccc21
#82 Cc1cc(C)c2sc(N(CCCN3CCOCC3)C(=O)c3nc4ccccc4s3)nc2c1
#83 O=C(NCc1n[nH]c(=S)n1-c1cccc(Cl)c1)c1ccccc1C(F)(F)F
#84 Cc1cccc(CC(=O)Nc2cc(C)nn2-c2nc(-c3cccs3)cs2)c1
Screen / compound no.	79	80	81	82	83	84
NPYLR7 agonist	-7.2	-2.7	1.7	-2.2	-2.5	-5.8
NPYLR7 agonist max-min	-12.8	2.4	0.5	-6.7	-6.8	-13.2

#85 CC1(C)C[C@H]2C[C@@H](O)[C@H](NC(=O)Cc3ccc(F)cc3)[C@]2(O)CO1
#86 S=c1[nH]cnc2scc(-c3ccc(Cl)cc3)c12
#87 Cc1ccc(C2C(C(=O)c3cccs3)=C(O)C(=O)N2CCCN(C)C)o1 (stereo not drawn)
#88 Cc1ccc(OS(=O)(=O)c2cccc(C(F)(F)F)c2)c(-c2nc3ncccc3o2)c1
#89 CC(CNC(=O)c1cc(Cl)c(Cl)n1C)N1CCOCC1 (stereo not drawn)
#90 CCn1ncnc1C(C)Nc1nc(-c2cccnc2)nc2c1CCNC2 (stereo not drawn)
#91 O=C(CSc1nnc(-c2ccco2)n1-c1ccccc1)N1CCCC1
#92 CCOc1nn(CC)cc1-c1nnc(SCC(=O)NC)n1CC
#93 CCOc1ccc2ccccc2c1C(=O)Nc1nn(C)c2c1CC(C)C(=O)N2 (stereo not drawn)
Screen / compound no.	85	86	87	88	89	90	91	92	93
NPYLR7 agonist	0.5	-1.1	14.0&5.2	20.8	1.6	3.3	2.4	0.1	-20.2
NPYLR7 agonist max-min	5.4	-2.0	7.6&1.9	17.2	-2.1	-1.8	-4.6	3.3	-24.5

Screens from PubChem.

Only part of the results is shown (hit frequency here may not be typical).
